Mtb bLac sens: beta-lactam sensitization of Mtb H37Rv, H37Rv | M. tuberculosis H37Rv growth with meropenem, percent inhibition; hits of this screen are not shown here | inhibition, % at 25 µM | 0.27% of 330,000 active | AID 434955, 2010;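 active = about 74% or more and at least 40 points above the plate without the antibiotic, then above 30% in a dose series; inconclusive = first-round hits that could not be retested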;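 note: growth measured after seven days incubation then overnight dye step; 0% = bacteria only wells and 100% = bacteria with antibiotic; twin plates without the antibiotic show which effects depend on it; some results filed as inactive read as strong as hits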
RecA splice inh: Mtb RecA intein splicing inhibitors, primary screen, biochemical, fluorescence, HTS; Protein RecA (Mycobacterium tuberculosis (strain ATCC 25618 / H37Rv)), P9WHJ3; cell-free RecA intein splicing; inhibition, %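 (about 9 µM by stock and volumes)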; 0.75% of 290,000 active; in the data active = inhibition above about 30%; inconclusive = no clear call, values can overlap the other calls;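 note: 0% = vehicle wells and 100% = reference inhibitor control wells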
Target sequence (P9WHJ3 whole entry, looked up, canonical isoform): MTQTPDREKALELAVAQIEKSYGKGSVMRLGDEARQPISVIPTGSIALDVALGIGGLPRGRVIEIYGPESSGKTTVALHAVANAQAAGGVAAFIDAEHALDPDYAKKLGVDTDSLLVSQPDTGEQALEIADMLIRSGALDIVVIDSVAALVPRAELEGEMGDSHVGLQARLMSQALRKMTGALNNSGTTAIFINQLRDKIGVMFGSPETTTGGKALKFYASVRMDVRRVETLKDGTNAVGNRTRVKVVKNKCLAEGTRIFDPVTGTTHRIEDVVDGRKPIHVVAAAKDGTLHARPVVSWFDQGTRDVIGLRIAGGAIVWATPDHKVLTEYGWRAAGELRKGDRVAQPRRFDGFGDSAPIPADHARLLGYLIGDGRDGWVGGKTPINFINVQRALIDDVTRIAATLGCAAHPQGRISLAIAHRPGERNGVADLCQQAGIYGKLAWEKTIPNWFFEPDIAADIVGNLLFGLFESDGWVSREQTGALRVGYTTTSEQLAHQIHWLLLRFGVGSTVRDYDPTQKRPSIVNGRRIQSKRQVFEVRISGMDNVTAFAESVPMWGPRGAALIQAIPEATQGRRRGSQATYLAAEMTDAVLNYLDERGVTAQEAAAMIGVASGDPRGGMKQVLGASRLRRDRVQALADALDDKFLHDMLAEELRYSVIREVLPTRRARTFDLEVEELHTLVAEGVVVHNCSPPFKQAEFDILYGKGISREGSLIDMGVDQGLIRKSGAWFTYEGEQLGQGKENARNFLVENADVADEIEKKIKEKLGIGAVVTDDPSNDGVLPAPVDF
Arbovirus inh: antivirals against arbovirus infection, primary screen, cell-based, full library, 10K replicate subset; arbovirus infection cell-based antiviral screen; inhibition, % at 10 µM; 0.37% of 200,000 active; AID 1251, 2008;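 active = inhibition from about 30%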;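 note: bluetongue infection of BSR cells; cell survival read as ATP light after 72 h; 0% = infected wells without compound and 100% = uninfected wells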
Mtb H37Rv: M. tuberculosis H37Rv growth inhibitors, H37Rv strain (AID 1626). 0.95% of 220,000 active. one-dose inhibition, % at 10 µM; IC50 in µM for titrated hits. M. tuberculosis H37Rv growth inhibition; higher % means a stronger effect;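 active = confirmed in a dose series; inconclusive = inhibition above 80% but not taken into the dose series; inactive = below 80% or under 30% at every dose of the series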;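 note: bacteria incubated seven days before Alamar blue readout; 0% = bacteria only wells and 100% = bacteria with antibiotic wells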
YopH inh: YopH tyrosine phosphatase inhibitors, primary screen, biochemical, fluorescence Ex485/Em525. YopH tyrosine phosphatase [Yersinia enterocolitica]. inhibition, %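 (about 10 µM by stock and volumes)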. 0.16% of 140,000 active;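 active = inhibition of 50% or more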;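 note: controls were vehicle for no effect and minimum signal wells for full effect; inactives centre near -20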
Arbovirus inh repeat: second read-out of Arbovirus inh, no call of its own (marks repeat the call); inhibition, %; measured here: 10K subset replicate screen; many hits read low in the repeat;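 first of two repeat runs on a subset; 0% = infected and 100% = uninfected wells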
Active calls of the source: *; u = inconclusive; x = no result given; & = joins results of further samples. Only part of the results is shown; count on the stated rates, not on these rows.

SMILES | Mtb bLac sens | RecA splice inh | Arbovirus inh | Mtb H37Rv | YopH inh | others
Cc1nnc(SCc2cccc(Cl)c2)n(N)c1=O | x | 2.8 | -15 | 6% | x
Cc1ccccc1Cn1cc(NS(=O)(=O)c2cn(C)nc2C)cn1 | -4 | -1.2 | x | x | x
O=C(c1[nH]ncc1-c1ccc(Cl)cc1)C1CO1 (stereo not drawn) | -6 | 33* | x | -5% | x
CN1/C(=C\C=N\O)C(C)(C)c2ccccc21 | -1 | -2.5 | -2 | 6% | x
O=C(O)CCCNc1cc(N2CCN(C(=O)c3ccco3)CC2)c2noc3c2c1C(=O)c1ccccc1-3 | 15 | -5.7 | x | x | x
O=C(CSc1n[nH]c(-c2ccccc2)n1)c1ccccc1 | -6 | -6.6 | 2 | 7% | -42 | Arbovirus inh repeat=-17
COC(=O)n1c(SC)nc2ccccc21 | 2 | 1.2 | 0 | 0% | -10
Cc1ccc(-c2csc(NCCc3nc4cc(Cl)c(Cl)cc4n3CCCO)n2)cc1 | 2 | 2.7 | x | -2% | x
COc1cccc(N(CC(=O)NC2CCCC2)C(=O)CCC(=O)Nc2cc(C)on2)c1 | -4 | 3.7 | x | x | x
NS(=O)(=O)c1cccc(NC(=O)c2ccccc2NS(=O)(=O)c2ccc(F)cc2)c1 | 0 | 5.3 | x | x | x
Cc1ccc(NC(=O)C[n+]2ccccc2)cc1C | -6 | 0.9 | x | x | x
O=C(c1cc(-c2ccc(Cl)c(Cl)c2)on1)N1CCCCC1 | 24 | -6.5 | -4 | x | -32
CC(C)Oc1nc(-c2ccc(Cl)cc2)nc2ccccc12 | 5 | 1.5 | x | 1% | x
COCC(C)NC(=O)COCc1cc(-c2ccc3c(c2)OCO3)on1 (stereo not drawn) | -3 | -2.3 | x | x | x
O=C(Nc1cccc(Cl)c1)Nc1c[nH]c(=O)[nH]c1=O | 3 | 6.1 | x | x | x
CCCCn1c(N)c(N(CCC(C)C)C(=O)c2ccc(N3CCCC3=O)cc2)c(=O)[nH]c1=O | -3 | 1.3 | x | x | x
COc1ccccc1CNc1cc(CSc2ccc(Cl)cc2)nc(C)n1 | 68 | 2.9 | 17 | 6% | -16
CCOC(=O)c1cc(/C(C)=N/OC(=O)c2ccc(C(C)(C)C)cc2)on1 | 99 | 0.3 | x | 28% | x
Cc1ccc2nc(N(CCCN(C)C)C(=O)c3ccco3)sc2c1 | -6 | 2.2 | -2 | -2% | x
Cc1ccc(CS(=O)(=O)Cc2ccc(C(=O)NCc3ccccn3)o2)cc1 | 4 | 2.2 | 10 | -12% | -15
CCn1c(=O)c(C(=O)NCc2ccc3c(c2)OCO3)c(O)c2ccccc21 | -1 | 3.2 | x | x | x
Cn1c(=O)n(CC(=O)N2CCN(c3nnc(-c4ccccc4)c4ccccc34)CC2)c2ccccc21 | -19 | 1.5 | 5 | -14% | -26
O=C(O)c1ccc(S(=O)(=O)c2ccc3c(c2)C(=O)N(NC(=O)c2ccccc2)C3=O)cc1 | -3 | 0.0 | 3 | 1% | x
NC(=O)C1CCN(C2CC(=O)N(Cc3cccs3)C2=O)CC1 (stereo not drawn) | -1 | -1.1 | 7 | -3% | -16
CCOCCCn1c(=S)[nH]c2cc(C(=O)NCCCN(CC)CC)ccc2c1=O | -2 | -0.8 | -5 | -6% | x

The results go on:
SMILES | Mtb bLac sens | RecA splice inh | Arbovirus inh | Mtb H37Rv | YopH inh | others
COc1cc(/C=N/NC(=O)Cc2cccs2)c([N+](=O)[O-])cc1OC | -8 | 0.8 | 1 | 0% | -4
Cc1oc(C)c(C(=O)O)c1COc1ccc(C(=O)O)cc1 | 2 | -3.9 | 9 | -5% | -6
Brc1cccc(CNCCCN2CCOCC2)c1 | -1 | -1.9 | -3 | 7% | x
COc1cccc(/C=N/NC(=O)CCc2n[nH]c(=O)[nH]c2=O)c1O | 1 | -3.5 | -25 | -6% | -10
C#CCOCCOCCOCCNc1nc(N2CCN(C(=O)[C@H](Cc3ccc(O)cc3)n3cc(CCO)nn3)CC2)nc(N2CCN(C(=O)[C@H](Cc3ccc(O)cc3)n3cc(CCO)nn3)CC2)n1 | 0 | 6.3 | 10 | x | -28
COc1ccc(CCNC(=O)c2cc(=O)c3cc(C)ccc3o2)cc1 | 4 | -2.9 | x | x | x
O=C(CSc1nnc(CNc2ccc(F)cc2)o1)c1ccccc1 | 15 | 1.2 | -10 | -4% | x
Cc1nc([N+](=O)[O-])cn1CCCCN1C(=O)c2ccccc2C1=O | -7 | 2.2 | x | x | x
CC(=O)NC(CC(=O)OC(C)C(=O)Nc1ncc(Cl)cc1Cl)c1ccccc1 (stereo not drawn) | -8 | -0.4 | x | x | x
CC(C)(C)N(Cc1ccccc1)C(=O)COC(=O)CSc1ccc([N+](=O)[O-])cc1 | 36 | 11 | x | x | x
CCCc1nc(SCC(=O)NC2CC2)c2c(C)c(C)sc2n1 | 3 | -4.6 | x | x | x
COc1ccccc1CNC(=O)CSc1ccc(C(=O)Nc2ccccc2OC)cc1[N+](=O)[O-] | 11 | -0.9 | 5 | 15% | -6
O=S(=O)(Nc1ccc(S(=O)(=O)Nc2cccc3ccccc23)cc1)c1ccccc1 | -22 | 9.3 | -4 | -2% | -7
CCC(C)C1N=C(c2ccccc2)c2cc(Cl)ccc2N(CC(=O)NCc2ccco2)C1=O (stereo not drawn) | -6 | -1.8 | 5 | -4% | -31
COc1ccccc1C(CNC(=O)C(C)(C)Oc1ccc(Cl)cc1)N1CCCC1 (stereo not drawn) | 3 | -4.5 | x | x | x
CC(C)OC(=O)/C(=C/c1ccc2c(c1)c1ccccc1n2C)NC(=O)c1ccccc1 | 6 | 1.3 | 1 | 13% | -38
CSc1ccc(C(=O)C2CCCN(Cc3ccc(N4CCNC4=O)cc3)C2)cc1 (stereo not drawn) | -3 | 0.7 | -15 | 2% | x
O=c1[nH]c(CSc2nnc(-c3ccncc3)n2Cc2ccco2)nc2ccccc12 | -12 | -1.3 | 10 | -21% | -4
COC(=O)c1cc2c(ccn2-c2ccc(F)cc2)n1Cc1cccc(OC)c1 | 7 | 2.9 | -8 | 4% | -29
CC(C)[C@@H]1NC(=O)c2cc([N+](=O)[O-])cc(F)c2NCCC[C@@H](C(N)=O)NC(=O)[C@H](CO)NC1=O | x | x | 1 | -5% | 15
Cc1ccsc1C(=O)C1CCCN(Cc2ccn[nH]2)C1 (stereo not drawn) | -4 | 1.7 | 7 | -3% | x
O=C(O)c1ncc(Cl)c(Cl)c1Cl | 17&-8 | 0.0&-1.2 | x | -11%&-14% | x
Cc1ccc([N+](=O)[O-])cc1NC(=O)CCCOc1ccccc1 | -3 | -0.4 | -2 | -9% | -25
Cc1cccc(S(=O)(=O)NC(Cc2c[nH]c3ccccc23)C(=O)O)c1 (stereo not drawn) | -5 | 7.9 | -5 | 0% | -17
O=[N+]([O-])c1cccn2cc(-c3ccc(Br)cc3)nc12 | u | 25 | -4 | 19µM* | x

(more compounds)
SMILES | Mtb bLac sens | RecA splice inh | Arbovirus inh | Mtb H37Rv | YopH inh | others
Cc1cccc(Oc2coc3cc(OC(=O)c4cc5ccccc5oc4=O)ccc3c2=O)c1 | 3 | -0.9 | 5 | 1% | -54
Cc1ccc(/C=C2\SC(N3CCN(C(c4ccccc4)c4ccccc4)CC3)=NC2=O)o1 | 74 | 33* | -13 | 21% | -20
Cc1ccc(C2=NN(C(=O)CN3C(=O)c4ccccc4S3(=O)=O)C(c3ccco3)C2)cc1 (stereo not drawn) | 95 | 1.0 | 25 | 0% | x
CCOC(=O)C1(CCOC)CCN(C/C=C/c2ccccc2OC)CC1 | 0 | 1.3 | x | x | x
CCOc1ccc(NC(=O)c2ccccc2NC(=O)CN(C)CC(=O)Nc2ccc(C)cc2)cc1 | 5 | -1.2 | 0 | 6% | -8
O=C1c2ccc(-c3nc4ccccc4o3)cc2C(=O)N1Cc1cccnc1 | 11 | 0.6 | x | -1% | -20
CCc1cc(CNC(=O)c2cccc(OC3CCN(S(C)(=O)=O)CC3)c2)on1 | -6 | -3.1 | x | x | x
COc1ccc(NC(=O)CSc2nnc(CNC(=O)c3ccco3)o2)cc1 | 2 | 2.0 | 10 | -4% | x
COC(=O)c1ccc2nc(NC(=O)CCS(=O)(=O)c3ccccc3)sc2c1 | 35 | 2.2 | x | x | x
COc1ccccc1-n1c(SCC(N)=O)nnc1-c1ccccc1 | 3 | 1.7 | 3 | -7% | -33
O=S1(=O)N=C(Nc2nc3c(s2)CCCC3)c2ccccc21 | 88 | x | -3 | u | -8
Cc1ccc(N2C(=N)SCC2=O)cc1Cl | -2 | 0.3 | 4 | -3% | -26
COCCCN1C(=O)C(=O)/C(=C(/O)c2ccc(OC)cc2)C1c1ccc(O)c(OC)c1 (stereo not drawn) | -4 | -4.4 | 12 | -1% | -20
Oc1ccc(Cl)cc1-c1cc(-c2cccc(Br)c2)n[nH]1 | 81 | 3.7 | -36 | 20% | -22
COc1ccc(/C=N/NC(=O)c2ccc(Br)cc2)cc1CN1CCOCC1 | -4 | 1.1 | x | -5% | x
O=C(O)CCC(=O)NNC(=O)c1cccc(Cl)c1 | 3 | -1.2 | -1 | -7% | -26
CC(=O)NC12CC3CC(C1)CC(C(=O)Nc1nccs1)(C3)C2 | 2 | 1.2 | 1 | -1% | -31
O=C(c1cc(-c2ccc(Cl)cc2)on1)N1CCN(c2ccc(F)cc2)CC1 | 4 | 0.1 | x | x | x
Nc1c(C(=O)Nc2ccccc2)c2nc3ccccc3nc2n1CCCN1CCOCC1 | 100 | -13 | x | u | x
CC1CCCCN1S(=O)(=O)c1ccc(S(=O)(=O)N(CC(=O)Nc2ccccc2)Cc2cccs2)cc1 (stereo not drawn) | 1 | -13 | 0 | -1% | -7
Cc1c(NS(=O)(=O)c2cc(C(=O)NCC3CCCO3)cc(Cl)c2Cl)c(=O)n(-c2ccccc2)n1C (stereo not drawn) | -3 | -2.3 | x | x | x
O=C(NCc1ccccc1F)C(=O)NCC1OCCCN1S(=O)(=O)c1cccs1 (stereo not drawn) | -2 | 3.6 | x | x | x
Cc1nn(C)c(C(=O)NNC(=S)Nc2ccc(Cl)cc2)c1[N+](=O)[O-] | -3 | 3.8 | 2 | 2% | -27
COc1cccc2c1c(NC(=O)c1cc(C)on1)nn2C | -2 | 2.3 | x | -2% | x
COCCn1c(N)c(NCc2ccccc2)c(=O)n(CC(=O)Nc2cc(C)ccc2C)c1=O | -22 | -5.3 | -1 | 4% | -34

Of the compounds above, these contain a thiophene ring, fused or not.
SMILES | Mtb bLac sens | RecA splice inh | Arbovirus inh | Mtb H37Rv | YopH inh | others
NC(=O)C1CCN(C2CC(=O)N(Cc3cccs3)C2=O)CC1 (stereo not drawn) | -1 | -1.1 | 7 | -3% | -16
COc1cc(/C=N/NC(=O)Cc2cccs2)c([N+](=O)[O-])cc1OC | -8 | 0.8 | 1 | 0% | -4
CCCc1nc(SCC(=O)NC2CC2)c2c(C)c(C)sc2n1 | 3 | -4.6 | x | x | x
Cc1ccsc1C(=O)C1CCCN(Cc2ccn[nH]2)C1 (stereo not drawn) | -4 | 1.7 | 7 | -3% | x
CC1CCCCN1S(=O)(=O)c1ccc(S(=O)(=O)N(CC(=O)Nc2ccccc2)Cc2cccs2)cc1 (stereo not drawn) | 1 | -13 | 0 | -1% | -7
O=C(NCc1ccccc1F)C(=O)NCC1OCCCN1S(=O)(=O)c1cccs1 (stereo not drawn) | -2 | 3.6 | x | x | x

Next section
SMILES | Mtb bLac sens | RecA splice inh | Arbovirus inh | Mtb H37Rv | YopH inh | others
COc1cccc(OC)c1C(=O)Nc1ccncc1 | 1 | 2.1 | x | x | x
CCOc1ccccc1NC(=O)Nc1cccc(S(N)(=O)=O)c1 | -5 | 2.1 | x | -2% | x
NC(=O)[C@H]1CC2(CC(c3cccc(NC(=O)COc4ccc(Cl)cc4)c3)=NO2)CN1C(=O)Cc1ccc([N+](=O)[O-])cc1 (stereo partly drawn) | -2 | 3.7 | x | 0% | x
O=[N+]([O-])c1ccc(Sc2ccccc2Cl)nc1 | 9 | 7.9 | -5 | -4% | -26
COc1ccc(/C=C/c2nnc(NC(=O)COc3cccc(C)c3)s2)cc1 | -1 | -22 | -5 | -6% | 0
CCOc1ccc(OCCCC(=O)NCCc2ccc(OC)cc2)cc1 | 2 | -0.3 | x | x | x
COc1ccccc1-c1cn[nH]c(=S)n1 | -10 | 35* | 1 | 6% | -43
Cc1cc(C(C)(C)C)cc(S(=O)(=O)Nc2cccc(C(=O)O)c2)c1C | -3 | 1.5 | -9 | -12% | -51
Cc1ccc(CN(C)C(=O)c2ccccc2Oc2ccccc2)o1 | 3 | 6.4 | 4 | -13% | -37

Screening data deposited in PubChem by several laboratories.
